# Compound activity: PubChem BioAssay, National Center for Advancing Translational Sciences (NCATS)
# VP16 counter: counter-screen for ROR gamma inhibitors: Gal4-VP16 reporter; Drosophila S2 Gal4-VP16 UAS-luciferase, luminescence, 20 h; Potency, µM (top dose mostly 53.6 µM), inactives show at the top dose activity, negative = inhibition, most hits filed as inhibitors; 3.5% of 310,000 active; AID 2546;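 note: Gal4-VP16 expression switched on by copper sulfate through the metallothionein promoter; potency is the fitted concentration of half-maximal effect; % is set by controls: 0 for no effect and ±100 for the full control effect; nearly all actives have a fitted effect of over 50% in size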
# ELG1 genotox: inducers of genotoxicity in HEK293T ELG1-luciferase cells; 1.3% of 330,000 active; HEK293T ELG1-luciferase reporter, luminescence, 16 h; Potency, µM (top dose mostly 46 µM), for inactives: top-dose activity change, positive = activation, usual class: activators; note: potency is the fitted concentration of half-maximal effect; % of control where 0% means no effect; nearly all actives have a fitted effect of over 60% in size
#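 Screening used a luciferase reporter fused to human ELG1 in HEK293T cells. Luminescence was read on a CCD plate imager after 16 hr exposure and 30 min ONE-Glo incubation.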
# RORgamma inh: blocks mouse ROR gamma transcriptional activity. P51450. Drosophila S2 Gal4-RORgamma UAS-luciferase reporter, 20 h. Potency, µM (doses to about 53.6 µM), inactives show top-dose activity change, negative = inhibition, hits mostly inhibitors. 5.4% of 310,000 active; note: potency is the fitted concentration of half-maximal effect; % is set by controls: 0 for no effect and ±100 for the full control effect; nearly all actives have a fitted effect of over 60% in size
# Target sequence (P51450 whole entry, looked up, the tested form may be a part): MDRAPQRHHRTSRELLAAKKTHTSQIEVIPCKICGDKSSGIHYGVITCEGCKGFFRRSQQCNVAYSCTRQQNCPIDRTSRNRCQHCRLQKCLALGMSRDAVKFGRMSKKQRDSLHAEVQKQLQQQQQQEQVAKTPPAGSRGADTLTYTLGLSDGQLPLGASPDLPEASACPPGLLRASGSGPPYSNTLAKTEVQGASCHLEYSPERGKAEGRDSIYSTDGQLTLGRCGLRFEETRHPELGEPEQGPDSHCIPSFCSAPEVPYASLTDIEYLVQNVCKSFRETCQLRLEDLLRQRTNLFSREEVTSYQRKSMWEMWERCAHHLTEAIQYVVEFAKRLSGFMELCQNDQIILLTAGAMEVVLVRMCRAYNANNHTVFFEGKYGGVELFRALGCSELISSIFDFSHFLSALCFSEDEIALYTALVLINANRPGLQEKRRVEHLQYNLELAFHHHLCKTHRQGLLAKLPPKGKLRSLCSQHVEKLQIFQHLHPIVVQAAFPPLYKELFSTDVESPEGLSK
#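 Stably transfected Drosophila Schneider cells are the test system, with ROR gamma fused to Gal4 and luciferase under UAS control; luminescence is read after 20 hr of 700 uM copper sulfate induction at ambient temperature.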
# Rab9 promoter act: Rab9 promoter activation. Huh7 Rab9 promoter-luciferase reporter, luminescence, 24 h. Potency, µM (titrated, usually from 9.22 µM), for the others: at the top dose activation, negative = inhibition, hits mostly activators. 2.8% of 320,000 active; note: potency is the fitted concentration of half-maximal effect; % of control where 0% means no effect; nearly all actives have a fitted effect of over 60% in size
#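 Stable Rab9-luc Huh7, 1500 cells/well, 2 h settle; cmpd in DMSO, 24 h, 37 °C/5% CO2; luciferase reagent 10 min RT; luminescence.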
# BRCA1 expr act: increases BRCA1 expression; 1.1% of 380,000 active; MCF7-BRCA1-FFLuc reporter, luminescence, 48 h; response scale: scaled: vehicle 0%, 10 µM genistein 100%; AID 624202; Potency, µM (top dose mostly 46.1 µM), without a hit: top-dose activation, actives largely listed as activators; note: potency is the fitted concentration of half-maximal effect; nearly all actives have a fitted effect of over 80% in size; some results filed as inactive show a strong effect at the top dose
#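 Compounds are tested at multiple concentrations on MCF7 BRCA1-luciferase reporter cells seeded at 2000 per well; after 48 h, a single luminescence end-point is taken and curves fitted to the normalized data.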
# Giardia kill: Giardia lamblia killing; Giardia lamblia trophozoite viability; activity change, % at 7.66 µM, hits read low; 0.15% of 340,000 active; AID 540267; in the data active = activity change below about -80%; inconclusive = between about -30% and that limit;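 note: parasites exposed to compound for two days anaerobically before the ATP read; % is set by controls: 0 for no effect and ±100 for the full control effect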
#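 Luminescent ATP signal served as the viability read-out, measured 15-30 min after adding ATP detection reagent to trophozoites that had been incubated with compounds for 48 hrs at 37 deg C anaerobically at 100 cells/well.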
# p53 reactivation: re-activators of mutant p53; AID 504706; Potency, µM (doses to about 92.2 µM), without a hit: at the top dose activity change, positive = activation, actives largely listed as activators; H1299 p53-A138V BP100-luciferase reporter, luminescence, 24 h; 0.063% of 320,000 active; note: potency is the fitted concentration of half-maximal effect; % of control where 0% means no effect; nearly all actives have a fitted effect of over 45% in size
#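 H1299 (p53-null), stable ts p53-A138V + BP100-Luc; 1000 cells/well, Opti-MEM/10% FBS; cpd 4 pt, 1:5; 24 h, 37 deg C, 5% CO2; detection reagent 10 min RT; luminescence.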
# NPC1 promoter act: activators of NPC1 promoter. Huh7 NPC1 promoter luciferase reporter, 24 h. AID 485313. 2.4% of 320,000 active. Potency, µM (titrated, usually from 9.22 µM), for inactives: at the highest dose activation, hits mostly activators;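 note: potency is the fitted concentration of half-maximal effect; % of control where 0% means no effect; nearly all actives have a fitted effect of over 60% in size; reporter is driven by a mutant NPC1 promoter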
#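 Luminescence read-out of NPC1 promoter-driven luciferase in stably transfected Huh7 cells; compounds delivered in DMSO and left 24 h at 37C, 5% CO2, qHTS titration format.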
# PKM2 activator: PKM2 (human) enzyme activation. Potency, µM (top dose mostly 57.5 µM), for the others: at the top dose activation, hits mostly activators. purified PKM2, Kinase-Glo ATP luminescence, activation; response scale: 0% is enzyme alone, no compound. 0.34% of 260,000 active. P14618. AID 1631; note: potency is the fitted concentration of half-maximal effect; % is set by controls: 0 for no effect and ±100 for the full control effect; nearly all actives have a fitted effect of over 55% in size
# Target sequence (P14618 whole entry, looked up): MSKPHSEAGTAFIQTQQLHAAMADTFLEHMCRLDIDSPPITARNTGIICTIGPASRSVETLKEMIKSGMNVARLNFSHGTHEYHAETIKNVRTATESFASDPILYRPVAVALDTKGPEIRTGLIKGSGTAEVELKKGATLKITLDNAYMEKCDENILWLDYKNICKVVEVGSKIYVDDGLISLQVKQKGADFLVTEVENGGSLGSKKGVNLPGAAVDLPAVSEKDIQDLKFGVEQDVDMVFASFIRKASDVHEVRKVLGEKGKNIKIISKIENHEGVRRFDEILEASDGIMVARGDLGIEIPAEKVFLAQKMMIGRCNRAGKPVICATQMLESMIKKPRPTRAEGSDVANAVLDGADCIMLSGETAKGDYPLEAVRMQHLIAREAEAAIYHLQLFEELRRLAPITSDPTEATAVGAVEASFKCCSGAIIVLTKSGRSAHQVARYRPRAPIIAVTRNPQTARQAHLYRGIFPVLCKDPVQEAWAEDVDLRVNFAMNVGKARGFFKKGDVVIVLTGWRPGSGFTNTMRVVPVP
#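 ATP formation by purified human PK-M2, quantified via coupled luciferase luminescence after 1 h at room temperature with 0.1 mM ADP and 0.5 mM PEP final.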
# * = called active by the depositor; ? = inconclusive; . = no result given; & = joins results of further samples; [ ] = dose if it differs, or a comment. Unless noted, calls come from the whole dose curve; as a rule, active = well fitted curve in the direction sought with a large enough effect; inconclusive = small, poorly fitted or top-dose-only effect, or another doubt; inactive = no such curve, though single readings can be large; an effect the other way counts as inactive or inconclusive. Some of the compounds tested; rates above refer to the full screens.
1: CCN(Cc1ccncc1)C(=O)[C@@H](CO)c1ccccc1
2: CC(=O)NS(=O)(=O)c1cccnc1Nc1ccc(Cl)c(Cl)c1
3: NC(=O)C(c1ccc(Cl)cc1)c1ccc(Sc2ccc(Cl)cc2)nn1 (configuration not stated)
4: Cc1cccn2c(=O)c3cc(C(=O)NCCc4ccccc4)c(=N)n(CCCn4ccnc4)c3nc12
5: CN(C)CCC(c1ccc(Cl)cc1)c1ccccn1 (configuration not stated)
6: CCOc1cc(C)c(Cl)cc1S(=O)(=O)NCc1ccc2c(c1)OCO2
7: O=C(O)CN1C(=O)SC(Nc2ccc(C(=O)O)cc2)C1=O (configuration not stated)
8: COC(=O)C1=NN(c2ccccc2OC)C2C(=O)N(c3ccccc3OC)C(=O)C12 (configuration not stated)

Assay by compound	1	2	3	4	5	6	7	8
ELG1 genotox	.	1%	-12%	2%	?	-5%	0%	1%
RORgamma inh	-1%	?	?	-12%	2%&-12%&-11%	-14%	-23%	4%[10 µM]
PKM2 activator	.	-17%	6%	-17%	0%&-1%	9%	-6%	-20%
Giardia kill	.	-4	-7	4	-11&-6	10	-4	-3
BRCA1 expr act	.	14%	-37%	-30%	6%&-5%	-62%	-13%	-24%
NPC1 promoter act	.	-5%	-6%	-1%	1%[46.1 µM]	-10%	-2%	-3%
VP16 counter	3%	1%	14µM*	?	-7%&-1%&-9%	-7%	-5%	-4%
p53 reactivation	.	6%	-4%	10%	-6%&2%	-2%	2%	0%
Rab9 promoter act	.	-9%	-14%	-10%	-3%[46.1 µM]	-3%	0%	-5%

# The closing 2 records of the part above open the next one:
7: O=C(O)CN1C(=O)SC(Nc2ccc(C(=O)O)cc2)C1=O (configuration not stated)
8: COC(=O)C1=NN(c2ccccc2OC)C2C(=O)N(c3ccccc3OC)C(=O)C12 (configuration not stated)
9: O=C1CCc2ccc(OCCCCN3CCN(c4cccc(Cl)c4Cl)CC3)cc2N1
10: OCCOCCN1CCN(C2=Nc3ccccc3Sc3ccccc32)CC1
11: CNCC[C@H](Oc1cccc2ccccc12)c1cccs1
12: COc1ccccc1CC(=O)Nc1ccc(-c2noc(COc3ccc(Cl)c(C)c3)n2)cc1
13: O=C(/C=C/c1ccccc1)c1ccc2c3c(cccc13)CC2
14: COCCOc1cc(N)c(Cl)cc1Cl
15: CCn1c(Cc2ccccc2)nnc1SCC(=O)Nc1ccc(S(N)(=O)=O)cc1
16: CCC/C(O)=C1\C(=O)CC(C)(C)CC1=Nc1cccc([N+](=O)[O-])c1

Assay by compound	7	8	9	10	11	12	13	14	15	16
ELG1 genotox	0%	1%	.	-3%	.	17%	?	8%	-2%	-3%
RORgamma inh	-23%	4%[10 µM]	-6%&15%	8%&-1%&6%&8%	-7%[10 µM]	12%	13µM*	39%	-17%	3%
PKM2 activator	-6%	-20%	-9%	-3%&-4%	-17%	-6%	-14%	-1%	5%	.
Giardia kill	-4	-3	-13	2&0	-4	-7	-1	-8	2	-16
BRCA1 expr act	-13%	-24%	-19%	17%&0%	-67%&-68%	1%	-9%	24%	-8%	-25%
NPC1 promoter act	-2%	-3%	-9%	2%&-2%	-5%	-8%	16%	4%	1%	-1%
VP16 counter	-5%	-4%	?	-3%&8%&0%&1%	-8%&-4%	-6%	16µM*	3%	-2%	8%
p53 reactivation	2%	0%	.	11%	.	0%	?	0%	1%	7%
Rab9 promoter act	0%	-5%	-13%	-3%&-7%	-2%	-1%	1%	5%	-1%	-1%

17: COc1ccc(-c2c(NCCc3ccccc3)c(=O)c2=O)cc1
18: COc1cc(Br)c(CC(=O)O)cc1OC
19: Cc1sc2ncn(CC(=O)NCCCC(=O)N3CCN(c4ncccn4)CC3)c(=O)c2c1C
20: Cn1c(CCNC(=O)c2ccccc2F)nnc1SCC(=O)Nc1nncs1
21: CCOc1ccc(/C=N/n2c(C)nnc2C)cc1OC
22: COc1cccc(C2C(C(=O)Nc3cccnc3)=C(C)Nc3nnnn32)c1OC (configuration not stated)
23: Cc1ccc(/C=C2/Sc3ccc(C(=O)N4CCN(C)CC4)cc3NC2=O)cc1
24: O=C(CSc1nc(O)cc(=O)[nH]1)C1CC1

Assay by compound	17	18	19	20	21	22	23	24
ELG1 genotox	7%	0%	0%	-1%	?	2%	2%	2%
RORgamma inh	-7%	4%	12%	-13%	-4%	-1%	-18%	0%[10 µM]
PKM2 activator	.	-1%	-2%	0%	-2%	-5%	.	4%
Giardia kill	-11	-1	0	-13	1	-6	33[activator]	2
BRCA1 expr act	-21%	12%	0%	1%	25%	-2%	20%	9%
NPC1 promoter act	-5%	2%	-3%	0%	-6%	0%	-1%	14%
VP16 counter	-3%	-1%	-4%	5%	-2%	3%	-8%	-4%
p53 reactivation	0%	-6%	-6%	28%	-1%	-11%	9%	14%
Rab9 promoter act	6%	2%	10%	3%	-1%	10%	0%	-9%

# Copied from the list.
# Value for compound 22 under PKM2 activator: -5%
# Value for compound 17 under ELG1 genotox: 7%

# (list continues)
25: O=c1ccn(Cc2ccc(F)cc2)c2ccnc(C(F)(F)F)c12
26: NS(=O)(=O)c1ccc(NC(=O)CSc2nnc(COc3ccccc3Cl)n2C2CC2)cc1
27: COc1ccc(/C=C2\N=C(C)N(c3ccc4ccccc4c3)C2=O)cc1OC
28: CCCn1c(C2CCCN2c2nc(-c3ccc(OC)cc3)cs2)nc2ccccc21 (configuration not stated)
29: Cc1ccc(NC(=O)N2C(=O)C3(OCCO3)c3ccccc32)cc1
30: C/C(=N\NC(=O)c1ccc(NS(=O)(=O)c2cccs2)cc1)c1ccc(C(C)(C)C)cc1
31: CCN(CC)C(=O)CSc1nc(-c2ccc(C)cc2)nc2c1COC(C)(C)C2
32: O=C(N/N=C/c1ccc2c(c1)OCO2)c1ccc(NS(=O)(=O)c2cccs2)cc1

Assay by compound	25	26	27	28	29	30	31	32
ELG1 genotox	-4%	-3%	-2%	0%	?	0%	15%	4%
RORgamma inh	?	10%	42%	2µM*	28%	2%	-3%	-8%
PKM2 activator	0%	5%	-1%	-19%	0%	0%	7%	-4%
Giardia kill	-11	30[activator]	8	17	7	-1	-14	1
BRCA1 expr act	-6%	-11%	-11%	0%	60%	-42%	8%[1.84 µM]	33%
NPC1 promoter act	1%	0%	0%	-3%	3.2µM*	0%	-5%	9%
VP16 counter	-17%	-1%	-9%	?	26%	-7%	-7%	7%
p53 reactivation	3%	-2%	5%	4%	16%	?	3%	1%
Rab9 promoter act	-2%	-3%	-3%	-1%	2µM*	-7%	0%	18%

33: C=CCn1c(Cc2csc(N)n2)nnc1SCC(=O)Nc1ccccc1C(F)(F)F
34: C=CCn1c(SCC(=O)Nc2cccnc2Cl)nnc1-c1ccccc1F
35: CCCCC(=O)N(c1ccc(C(=O)O)cc1)c1nc(-c2ccc(Cl)cc2)c(CC)s1
36: CO[C@H]1/C=C/O[C@@]2(C)Oc3c(C)c(O)c4c(O)c(c(C=NN5CCN(C)CC5)c(O)c4c3C2=O)NC(=O)/C(C)=C\C=C\[C@H](C)[C@H](O)[C@@H](C)[C@@H](O)[C@@H](C)[C@H](OC(C)=O)[C@@H]1C
37: Cc1cc2nc(CN(C)Cc3c(C(=O)N(C)C)nc4ccc(Cl)cn34)[nH]c2cc1C
38: CC(C)CCNC(=O)[C@H](Cc1ccccc1)N1Cc2ccccc2C1=O

Assay by compound	33	34	35	36	37	38
ELG1 genotox	-3%	-4%	-15%	16%	-6%	-2%
RORgamma inh	-13%	?	-3%	.	-45%	-1%
PKM2 activator	-2%	-2%	-4%	.	4%	.
Giardia kill	1	-25	-11	-26	-3	12
BRCA1 expr act	-35%	-24%	12%	21%	-1%	-15%
NPC1 promoter act	-2%	-3%	-9%	-5%	1%	-1%
VP16 counter	4%	?	-1%[10 µM]	.	5%	3%
p53 reactivation	-1%	-9%	0%	7%	-6%	3%
Rab9 promoter act	2%	-6%	-15%	-5%	-6%	-9%

# Compound profiles, as listed above.
# Shown for `CO[C@H]1/C=C/O[C@@]2(C)Oc3c(C)c(O)c4c(O)c(c(C=NN5CCN(C)CC5)c(O)c4c3C2=O)NC(=O)/C(C)=C\C=C\[C@H](C)[C@H](O)[C@@H](C)[C@@H](O)[C@@H](C)[C@H](OC(C)=O)[C@@H]1C` → ELG1 genotox: 16%; RORgamma inh: .; PKM2 activator: .; Giardia kill: -26; BRCA1 expr act: 21%; NPC1 promoter act: -5%; VP16 counter: .; p53 reactivation: 7%; Rab9 promoter act: -5%
# Shown for `Cc1cc2nc(CN(C)Cc3c(C(=O)N(C)C)nc4ccc(Cl)cn34)[nH]c2cc1C` → ELG1 genotox: -6%; RORgamma inh: -45%; PKM2 activator: 4%; Giardia kill: -3; BRCA1 expr act: -1%; NPC1 promoter act: 1%; VP16 counter: 5%; p53 reactivation: -6%; Rab9 promoter act: -6%
